hNpr1 antagonist: Natriuretic polypeptide receptor (hNpr1) antagonism - Primary qHTS; Potency, µM (titrated, usually from 46.3 µM), for the others: at the highest dose activity change, negative = inhibition, most hits filed as inhibitors; 76,000 compounds, 1.6% hits; Atrial natriuretic peptide receptor 1 (Homo sapiens), P16066; AID 1347048, 2019; HEK293 hNpr1 GloSensor cGMP, ANP-stimulated luminescence; active = well fitted inhibition curve with a large enough effect; inconclusive = small, poorly fitted or top-dose-only effect; inactive = no such curve, though single readings can be large or run the other way;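 also: nearly all actives have a fitted effect of over 60% in size; nearly all hits also lower the signal before the agonist is added; a reference antagonist and vehicle were the controls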
Target sequence (P16066 whole entry, looked up): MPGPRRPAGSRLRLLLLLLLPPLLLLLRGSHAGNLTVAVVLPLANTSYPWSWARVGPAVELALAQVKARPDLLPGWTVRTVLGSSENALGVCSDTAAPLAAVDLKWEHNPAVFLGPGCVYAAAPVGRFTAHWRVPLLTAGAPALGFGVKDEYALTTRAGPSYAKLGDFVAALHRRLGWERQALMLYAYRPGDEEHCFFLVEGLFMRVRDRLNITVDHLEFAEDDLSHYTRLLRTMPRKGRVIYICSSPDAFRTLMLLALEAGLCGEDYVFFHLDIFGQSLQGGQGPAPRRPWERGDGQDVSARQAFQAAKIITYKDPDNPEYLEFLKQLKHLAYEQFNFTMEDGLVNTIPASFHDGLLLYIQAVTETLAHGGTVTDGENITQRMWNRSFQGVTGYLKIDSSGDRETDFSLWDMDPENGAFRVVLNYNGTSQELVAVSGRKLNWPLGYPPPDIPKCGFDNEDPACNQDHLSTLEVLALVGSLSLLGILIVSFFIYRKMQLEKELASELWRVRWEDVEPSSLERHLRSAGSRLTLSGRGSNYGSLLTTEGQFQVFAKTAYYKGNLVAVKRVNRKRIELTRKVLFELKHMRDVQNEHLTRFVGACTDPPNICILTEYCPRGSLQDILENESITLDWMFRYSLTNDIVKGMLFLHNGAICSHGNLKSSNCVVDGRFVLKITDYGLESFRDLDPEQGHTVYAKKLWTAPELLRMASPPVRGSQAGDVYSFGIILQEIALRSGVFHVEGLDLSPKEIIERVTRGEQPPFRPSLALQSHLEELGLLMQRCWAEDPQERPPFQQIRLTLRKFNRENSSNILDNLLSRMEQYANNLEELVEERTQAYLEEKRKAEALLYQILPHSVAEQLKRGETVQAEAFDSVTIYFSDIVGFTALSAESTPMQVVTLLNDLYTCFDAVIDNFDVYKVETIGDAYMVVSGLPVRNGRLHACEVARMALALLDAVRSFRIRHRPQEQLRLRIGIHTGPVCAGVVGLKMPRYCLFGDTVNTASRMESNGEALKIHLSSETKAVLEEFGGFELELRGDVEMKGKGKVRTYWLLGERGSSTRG
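HEK293 cells stably expressing human Npr1 and cGMP GloSensor pGS-40F, loaded 2 h with 2% GloSensor reagent, given compound 30 min at room temperature. Luminescence read before and 20 min after 0.1 nM hNppA.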
Starred values were filed as active, the others as inactive; ? = inconclusive; & = joins results of further samples; [ ] = remark or other dose. % is scaled to controls: 0 for no effect and ±100 for the full control effect; potency is read from the fitted curve at half-maximal effect. Not all compounds are listed; count on the stated rates, not on these rows.

SMILES | hNpr1 antagonist
CN(C)CCNC(=O)c1cc(-c2ccccc2F)cc2c1OCCN2Cc1cccnc1 | -25%[70.6 µM]
O=C(NC[C@H]1OC[C@@H](NC2CCC2)[C@@H]1O)C1CC1 | 6%[70.6 µM]
Cc1cc(C(=O)N2CCC(F)(c3nc(-c4ccncc4)no3)CC2)n(C)n1 | 11µM*
CC(C)c1noc([C@H]2C[C@@H]3C(=O)NCCCCCCN(C(=O)Cc4cccnc4)[C@@H]3C2)n1 | -5%
COCC(=O)NC[C@H]1O[C@@H](CO)[C@@H](O)[C@H]1N1CCN(c2cccc(C(F)(F)F)c2)CC1 | -1%
Cc1nc(N)nc(C)c1CC(=O)N1CC2(CCNCC2)CC1C(=O)O (stereo not drawn) | -1%
COC(=O)c1cc2n(n1)CCCN(C(=O)CCn1cnnn1)C2 | 5%
O=C(Nc1ccccc1)N1CCC2(CC1)CC(N(C(=O)c1ccccc1)C1CC1)CCO2 (stereo not drawn) | -3%
Cc1cnc(-c2ccccc2)n1CC1CCN(C(=O)C(C)c2ccccc2)CC1 (stereo not drawn) | -14%
Cc1cnc2c(C(=O)N3CCCn4nc(C(C)O)cc4C3)cnn2c1 (stereo not drawn) | 4%
CN1c2cc(C(=O)N3CCc4ccccc4C3)ccc2C(=O)N2CCCCC21 (stereo not drawn) | 2%
CCc1ccc(NC(=O)Nc2cccc(-c3nnc4n3CCCC4)c2)cc1 | 1%
CCc1cc(=O)n(CC(=O)Nc2ccccc2F)c(-c2cccc(F)c2)n1 | -1%
CN1CC(=O)N(c2ccccc2F)Cc2c(NCc3cccs3)ncnc21 | 4%
COc1ccc2[nH]c3c(c2c1)CCN(C)C31CCN(C(=O)c2cccc(C)c2)CC1 | 6%
CC(C)CN1C(=O)c2cccn2CC1C(=O)O (stereo not drawn) | 1%
CCn1c(CO)nnc1C1CC(NC(=O)CCc2c(C)nn(C)c2C)C1 (stereo not drawn) | 15%
Cc1ccc(C)c(OCC(=O)c2ccc3c(c2)N(CC(=O)NCC2CC2)C(=O)CO3)c1 | -13%
Cc1nccn1-c1ccccc1CNC(=O)[C@H]1CC[C@@H](N)C1 | 6%
COc1ccc(NC(=O)N2CCc3nnc(C4CC4)n3CC2)cc1 | 3%
NC(=O)c1cccnc1N1CCOC(CC(c2ccccc2)c2ccccc2)C1 (stereo not drawn) | -6%
CCCn1cc(-c2ccncc2)cc1C(=O)NCc1ccc(OC)cc1 | -14%
Cc1ccc(Cl)cc1Nc1ncncc1-c1nc(-c2ccccc2)no1 | -11%
CNC(=O)[C@@H]1CN(C(=O)Cc2ccccc2C)C[C@H]1COC | -2%
CC(C)N1C[C@@H]2CN(C(=O)CCCn3ccnc3)C[C@]2(C(=O)O)C1 | -1%
C=CCS(=O)(=O)N1CCCC(CCc2cccc(OC)c2)C1 (stereo not drawn) | -1%
Cc1cccc(C(=O)N2CCC(Cc3n[nH]c(C)n3)CC2)c1 | 0%
CC(=O)N1C[C@H](NC(=O)c2cnc(N)nc2-c2ccccc2)[C@@H](C2CC2)C1 | 2%
COC(=O)[C@@H](Cc1cccnc1)NC(=O)[C@@H]1CN(S(C)(=O)=O)CCN1C(=O)C1CCCCC1 | 5%
O=C(CN1CC2CC(C1)[C@H]1CCCC(=O)N1C2)NCCc1cccs1 (stereo partly drawn) | -9%
CC(C)CNC[C@H]1O[C@H](Cc2cc(CN(C)Cc3ccccc3)on2)CC[C@@H]1O | -2%[70.6 µM]
COc1ccccc1-c1ncc(CNc2cc(C3CC(O)C3)ncn2)s1 (stereo not drawn) | 7.1µM*
CC(=O)N1CCC([C@@H]2CN(Cc3ccccc3C(F)(F)F)C[C@H]2CO)CC1 | 6%
O=C(Cc1cccc(Cl)c1)N1CCC(c2nn(-c3ccc(Cl)cc3)c(=O)[nH]2)CC1 | -1%
O=C(O)CN1CCN(Cc2ccc(OCCc3ccccc3)cc2)CC1=O | 4%
NC(=O)COc1ccc(C(=O)N[C@@H]2CN(C(=O)NC3CCCCC3)CCC[C@H]2O)cc1 | 8%[70.6 µM]
C=CCn1cc2c3c(cccc31)[C@H](CC(C)C)N[C@H](C(=O)O)C2 | 2%[70.6 µM]
CC(=O)Oc1ccccc1C(=O)Nc1ccc2c(c1)CN(Cc1ccc(Cl)cc1)C(=O)C(C)O2 (stereo not drawn) | ?
C=CCCC(CN1CCCOCC1)Oc1cc(C#N)ccn1 (stereo not drawn) | 15%
COc1cccc(CNC(=O)C2Cn3cccc3C(=O)N2Cc2ccccc2)c1OC (stereo not drawn) | -1%
Cc1cnc(C(=O)N[C@@H]2CCC[C@@H]2C(=O)N2CCN(CC(C)C)CC2)cn1 | 4%
COc1ccc(N2CC(C(=O)N3CCC(C(=O)N4CCN(c5ncccn5)CC4)C3)NC2=O)cc1 (stereo not drawn) | -1%&0%
CN1C(=O)C(CC(=O)Nc2ccccc2)=C2CCCCC21 (stereo not drawn) | -3%
CN(Cc1ccccc1F)C1CCOc2ccccc21 (stereo not drawn) | 12%[70.6 µM]
Fc1cccc(-c2cnc(Nc3cncnc3)c3c2CCO3)c1 | 5%[70.6 µM]
Cc1ccn(CC(=O)N2CCCn3ccnc3C2c2cnn(C)c2)n1 (stereo not drawn) | -1%
O=C(CCC1CCCN(CCCn2cccn2)C1)Nc1ccc(C(F)(F)F)cc1 (stereo not drawn) | 0%
O=C(CC1CCCN(c2cnn(CC3CC3)c(=O)c2)C1)NCc1cccs1 (stereo not drawn) | -7%
O=C(NCc1cccs1)c1cc2n(n1)CC(c1ccc3c(c1)OCO3)OC2 (stereo not drawn) | -4%
Cc1c(C(=O)N2CCCn3nc(C(C)O)cc3C2)sc2nc[nH]c(=O)c12 (stereo not drawn) | 0%
c1ccc(Nc2cc3c(cn2)CN(Cc2cccs2)CCN3)cc1 | -19%[70.6 µM]
COc1cc(-c2ccc(C(F)(F)F)cn2)cc2c1OCCNC2 | -5%
CN(C)C(=O)[C@@H]1CN(Cc2cccnc2)C[C@H]1CO | 1%
O=C(c1ccccc1F)N1CCC2(CC1)C(=NC1CCCC1)NC(=O)N2c1cc(F)cc(F)c1 | -4%
COc1cccc(CN2CCc3c(cc(C(=O)Nc4ccc(F)cc4C)n3C)C2)c1 | -4%
Cc1noc([C@@H]2CN(C(=O)Cn3c(=O)oc4ccccc43)C[C@H]2C(N)=O)n1 | 2%
CCOC(=O)c1ccc(NC(=O)Cn2nc3c(cc2=O)CN(C(C)=O)CC3)cc1 | -1%
Fc1ccc(Cc2nc3nccc(-c4ccc5c(c4)OCCCO5)n3n2)cc1 | -2%
CCc1noc(-c2cccn3c(CNC(=O)C4CC4)nnc23)n1 | 3%
COCCN1CCCCCC(O)c2cc(C(=O)NCc3cc(OC)ccc3OC)ccc21 (stereo not drawn) | -6%

14 of the compounds above, as a markdown table.
| SMILES | hNpr1 antagonist |
| --- | --- |
| O=C(CCC1CCCN(CCCn2cccn2)C1)Nc1ccc(C(F)(F)F)cc1 (stereo not drawn) | 0% |
| O=C(CC1CCCN(c2cnn(CC3CC3)c(=O)c2)C1)NCc1cccs1 (stereo not drawn) | -7% |
| O=C(NCc1cccs1)c1cc2n(n1)CC(c1ccc3c(c1)OCO3)OC2 (stereo not drawn) | -4% |
| Cc1c(C(=O)N2CCCn3nc(C(C)O)cc3C2)sc2nc[nH]c(=O)c12 (stereo not drawn) | 0% |
| c1ccc(Nc2cc3c(cn2)CN(Cc2cccs2)CCN3)cc1 | -19%[70.6 µM] |
| COc1cc(-c2ccc(C(F)(F)F)cn2)cc2c1OCCNC2 | -5% |
| CN(C)C(=O)[C@@H]1CN(Cc2cccnc2)C[C@H]1CO | 1% |
| O=C(c1ccccc1F)N1CCC2(CC1)C(=NC1CCCC1)NC(=O)N2c1cc(F)cc(F)c1 | -4% |
| COc1cccc(CN2CCc3c(cc(C(=O)Nc4ccc(F)cc4C)n3C)C2)c1 | -4% |
| Cc1noc([C@@H]2CN(C(=O)Cn3c(=O)oc4ccccc43)C[C@H]2C(N)=O)n1 | 2% |
| CCOC(=O)c1ccc(NC(=O)Cn2nc3c(cc2=O)CN(C(C)=O)CC3)cc1 | -1% |
| Fc1ccc(Cc2nc3nccc(-c4ccc5c(c4)OCCCO5)n3n2)cc1 | -2% |
| CCc1noc(-c2cccn3c(CNC(=O)C4CC4)nnc23)n1 | 3% |
| COCCN1CCCCCC(O)c2cc(C(=O)NCc3cc(OC)ccc3OC)ccc21 (stereo not drawn) | -6% |

(next part)
SMILES | hNpr1 antagonist
COc1ccc(CC(=O)N2CCCN(S(C)(=O)=O)c3ccccc32)cc1OC | -3%
O=C(NCc1ccco1)c1ccc2c(c1)CC(=O)N2Cc1cccc(F)c1 | 2%
O=C1NCCCCCCN(Cc2cccc3[nH]ccc23)[C@H]2CCC[C@@H]12 | -8%
O=C(c1cc(C(F)(F)F)[nH]n1)N1CC[C@@H](c2ccc(F)cc2)[C@H](O)C1 | -1%
COc1ccc(NC(=O)N2CCC3(CC2)SCC(=O)N3c2ccc(Cl)cc2)cc1 | 6%
CC(C)CC(=O)N1CCCN(c2nnc3ccccn23)CC1 | 1%
CCC1Oc2ccc(NC(=O)Cc3ccccc3)cc2CN(Cc2ccc3c(c2)OCO3)C1=O (stereo not drawn) | -15%
Cc1cc(CNC(=O)C(C)Cn2nc(C)nc2C)c2[nH]c(-c3ccccc3)c(C)c2c1 (stereo not drawn) | -19%
Cc1occc1C(=O)N1CCC2(CCCN(Cc3cccnc3)C2=O)C1 (stereo not drawn) | 8%
c1cc(-c2noc([C@@H]3CCCN3Cc3ncc[nH]3)n2)cc(N2CCCC2)n1 | -27%[70.6 µM]
O=C(O)c1cc(-c2ccc3cc[nH]c3c2)cc(S(=O)(=O)N2CCSCC2)c1 | 2%
COCCNC(=O)c1c(-c2ccc(F)cc2)noc1[C@H](C)O | 1%[70.6 µM]
O=C(Nc1ccc2[nH]ccc2c1)C1=NO[C@@H]2CN(c3ccccc3)C[C@H]12 | -3%[70.6 µM]
CCN(CC)C(=O)N1CCCC(Cc2ncc(C)n2Cc2ccc(F)cc2)C1 (stereo not drawn) | -1%
COc1ccc(NC(=O)N2CCC3(CC2)SCC(=O)N3c2ccc(F)cc2)cc1 | 1%
Cn1cccc1CN1CCCC(C(=O)NCc2ccccc2)CCNC(=O)CC1 (stereo not drawn) | 0%
Cc1c(C(=O)N2CC[C@@H]3[C@@H](CCC(=O)N3CCN)C2)[nH]c2ccccc12 | -9%
O=C1Nc2ccc(-c3cccc(C(F)(F)F)c3)cc2C(=O)N2CCN(C(=O)c3cccs3)C[C@H]12 | -22%
CC(C)n1cc(CN2C[C@@H]3C(=O)N(Cc4ccc5c(c4)OCO5)C(=O)[C@@H]3C2)c2ccccc21 | -6%
Cc1cnc(C(=O)N[C@@H]2CN(Cc3ccccc3)C[C@H]2CO)cn1 | 0%
Cc1ccccc1-c1nn(-c2ccc(F)cc2F)cc1CN1CCCC1CCO (stereo not drawn) | 2%
O=C(NC1C[C@H]2CC[C@@H](C1)N2C(=O)CC1CCCC1)c1ccncc1 (stereo partly drawn) | 1%
Cc1ccccc1C(=O)NCc1cccnc1Oc1cccc(C(F)(F)F)c1 | ?
CN1CC(=O)N(c2ccc(Cl)cc2)Cc2c1ncnc2N1CCC(c2ccccc2)CC1 | -26%
Cn1nccc1C(=O)N1CCC2(CCCN(Cc3cccc(F)c3F)C2=O)C1 (stereo not drawn) | 0%
O=C(NCc1ccccc1)C1CN(S(=O)(=O)c2cccnc2)CC12CCCCC2 (stereo not drawn) | -12%
CN(C)C[C@@H]1CN(C)C[C@H]1NC(=O)c1cnn(C)c1 | 1%
O=C(NCc1ccc2c(c1)OCO2)c1nc(-c2ccc(F)cc2)c2cnccn12 | -11%
O=C(Cn1nc2c(cc1=O)CCCC2)NCCCc1nc2ccccc2[nH]1 | -1%
COc1ccc(NC(=O)CN2C(=O)NC3(CCC(C)CC3)C2=O)c(OC)c1 (stereo not drawn) | -1%
CC(C)C[C@@H]1N[C@H](C(=O)NC2CCC2)Cc2cn(CC3CC3)c3cccc1c23 | 3%[70.6 µM]
CCNC(=O)c1ccccc1-c1ccc(O)cc1 | 2%
O=C(NC[C@H]1O[C@@H](CO)[C@@H](O)[C@H]1N1CCN(c2ccc(F)cc2)CC1)c1cccs1 | 3%
COc1ccc(C(=O)N[C@@H]2CCC[C@@H]2C(=O)NCCCn2cccn2)cc1 | -3%
CSCC(=O)N[C@H]1CCN2C(=O)c3cc(Br)ccc3NC(=O)[C@@H]2C1 | -2%[70.6 µM]
CN1CCC(C)(CNc2ncc(C(C)(C)C(=O)O)c(N3CCOCC3)n2)C1 (stereo not drawn) | 4%
COc1cccc(C(=O)N2CCC3(CC2)CC(=O)N(c2ccccc2)c2ccccc2O3)c1 | 0%
Cc1ccccc1CC(=O)N1CCCn2cc(-c3cccc(C#N)c3)nc21 | 4%
O=C(C[C@@H]1CCNC[C@@H]1Cc1cc(-c2ccccc2)on1)NCc1cccs1 | -3%[70.6 µM]
CC(C)(Oc1ccccc1)C(=O)N1CCC2(CC1)CNC(C(=O)O)C2 (stereo not drawn) | 0%
O=C(NCCCN1CCCc2ccccc21)c1ccc(N2CC3CC(C2)[C@H]2CCCC(=O)N2C3)nc1 (stereo partly drawn) | -7%
CN(c1ncccc1CNC(=O)c1ccc2c(c1)OCO2)C1CCCCC1 | 1%
O=C([C@@H]1C[C@H](c2ccc(F)cc2)N(Cc2ccccc2Cl)C1)N1CC(O)C1 | -13%[70.6 µM]
C=CCNC(=O)N1CC[C@H]2CC(=O)N(CCN3CCNC3=O)CC[C@H]2C1 | -4%[70.6 µM]
Cc1ccc(C)c(C(=O)N2CCN(C(=O)c3nnn4c3COC(c3ccc(Cl)cc3)C4)CC2)c1 (stereo not drawn) | ?
COc1ccccc1C(=O)N1CC(c2nnc(-c3ccncc3)o2)C2(CCOCC2)C1 (stereo not drawn) | -2%
